# Mtb MenB inh: inhibitors of Mycobacterium tuberculosis MenB enzyme. P9WNP5. MenB enzyme assay, absorbance read-out; some hits fall short of the stated cut. inhibition, %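 (about 12 µg/mL by stock and volumes)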. 100,000 compounds, 0.43% hits;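 active means mean of two replicates above 30%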;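 further: 0% = no compound and 100% = wells with inactive enzyme; the first replicate is given; strong numbers were not always called active; inactives centre near -10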
# Target sequence (P9WNP5 whole entry, looked up): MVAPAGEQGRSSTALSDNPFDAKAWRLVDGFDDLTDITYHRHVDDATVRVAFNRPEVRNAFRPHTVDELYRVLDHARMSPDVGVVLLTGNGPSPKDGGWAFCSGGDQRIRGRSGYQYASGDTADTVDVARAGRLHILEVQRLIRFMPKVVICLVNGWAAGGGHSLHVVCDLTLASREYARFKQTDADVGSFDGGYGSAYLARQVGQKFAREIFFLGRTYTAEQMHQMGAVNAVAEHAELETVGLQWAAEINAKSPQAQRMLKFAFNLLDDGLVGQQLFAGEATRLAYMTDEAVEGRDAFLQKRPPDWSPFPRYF
# Polio RdRp inh: inhibitors of poliovirus RNA polymerase binding and polymerization; % elongation, % (compound at 16.7 µg/mL); 150,000 compounds, 0.66% hits; poliovirus polymerase elongation, fluorescence polarization; stronger effect = lower value; in the data active means % elongation below about 90%; further: some results filed as inactive read as strong as hits
# Target sequence (P03300 1749-2209 limits assumed): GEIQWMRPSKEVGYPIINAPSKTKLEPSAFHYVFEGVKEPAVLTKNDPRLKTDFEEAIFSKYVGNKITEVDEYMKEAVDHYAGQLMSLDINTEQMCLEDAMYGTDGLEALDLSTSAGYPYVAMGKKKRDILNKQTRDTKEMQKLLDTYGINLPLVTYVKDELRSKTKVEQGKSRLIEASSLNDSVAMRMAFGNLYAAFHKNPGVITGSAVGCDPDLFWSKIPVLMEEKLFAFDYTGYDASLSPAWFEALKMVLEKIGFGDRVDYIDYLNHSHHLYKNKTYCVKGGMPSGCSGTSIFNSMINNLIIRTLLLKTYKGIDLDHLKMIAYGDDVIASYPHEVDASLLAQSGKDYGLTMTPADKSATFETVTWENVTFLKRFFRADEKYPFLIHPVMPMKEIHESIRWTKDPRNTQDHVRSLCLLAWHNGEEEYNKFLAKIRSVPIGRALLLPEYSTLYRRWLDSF
# Mtb MbtI inh: blocks the Mycobacterium tuberculosis siderophore enzyme MbtI. P9WFX0. purified MbtI enzyme, fluorescence intensity read-out. inhibition, %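 (about 17 µg/mL by stock and volumes)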. 100,000 compounds, 0.89% hits;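 active means above 50% in both replicates, above 80% if mildly self-fluorescent; inactive means the rest, strongly fluorescent compounds included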;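 further: 0% = mean of negative and 100% = mean of positive controls; one replicate is shown; some compounds called inactive have numbers as strong as hits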
# Polio RdRp inh intensity: second read-out of Polio RdRp inh, no call of its own (marks repeat the call); % elongation; measured here: total intensity read-out; formula for this scale not given here;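 total fluorescence in place of polarization; lower means less elongation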
# * hit, by the source's call; · = not tested or not shown; & = joins results of further samples.
# Values in the order – Mtb MenB inh, Polio RdRp inh, Polio RdRp inh intensity, Mtb MbtI inh
CCN(C(=O)CSc1ncccc1C(=O)OC(C)C)c1cccc(C)c1
  3, 104, 98, 10
c1ccc(Nc2nc(-c3ccccc3)nc3ccccc23)cc1
  -53, 102, 98, ·
O=C(O/N=C1\CCCCC1Cn1ccnc1)c1ccc(Cl)cc1 (stereo not given)
  16, 100, 99, 11
CN1CCN(CC(=O)Nc2ccccc2)CC1
  -6, 101, 101, -9
CC1CCN(C(=O)CSc2nc3ccccc3c(=O)[nH]2)CC1
  -3, 101, 102, 7
COc1ccc(S(=O)(=O)N2CCN(CC(=O)Nc3ccc(OC)cc3OC)CC2)cc1
  -8, 102, 103, -11
C=CCc1c(C)c(C#N)c2nc3ccccc3n2c1NCCc1ccc(OC)c(OC)c1
  -53, 105, 98, 6
COc1cc2nc(N=C(N)N)[nH]c(=O)c2cc1OC
  -17, 99, 112, ·
CCCCC(=O)C1C(=O)CC(c2ccccc2)CC1=O (stereo not given)
  -48, 98, 103, -16
COc1ccc(C2=CC(=O)OC3(CCCCC3)O2)cc1
  -25, 104, 107, 18
CC(C)(C)C(=O)CSc1nc2[nH]c(=O)[nH]c(=O)c2s1
  3, 98, 98, 1
O=C(NC1CCC(NC(=O)c2ccccc2F)CC1)c1ccccc1 (stereo not given)
  1, 104, 99, ·
O=C(/C=C/c1cccc(Cl)c1)NCc1ccncc1
  -9, 101, 102, -1
O=S(=O)(c1ccccc1)c1nc(-c2ccccc2)oc1N1CCCC1
  -15, 103, 104, 19
N#Cc1cc2cc3c(cc2nc1SCC(=O)N1CCN(c2ccc(F)cc2)CC1)OCCO3
  3, 97, 113, 18
COc1ccc(CNC(=O)C(NS(=O)(=O)c2cccc3nsnc23)C(C)C)cc1 (stereo not given)
  6, 100, 101, 1
NC(=S)COc1ccc(F)cc1
  -4, 104, 109, -11
C=CCC1c2cccc(C(=O)O)c2C(=O)N1c1cccc(OC)c1 (stereo not given)
  -4, 103, 107, -114
O=C(O)c1occc1-c1ccccc1
  -4, 105, 98, 3
COc1ccc(N(Cc2cc3ccc(C)cc3[nH]c2=O)C(=O)C(C)C)cc1
  -48, 104, 100, 8
CCc1ccccc1Nc1cc(C(=O)NCc2ccco2)c2ccccc2n1
  -22, 100, 100, 14
Nc1ccccc1SC1=CS(=O)(=O)c2ccccc21
  -2, 99, 94, -3
O=C(O)CCC(=O)N1CCN(c2nc(-c3ccccc3Cl)c3cc(Br)ccc3n2)CC1
  -32, 105, 101, 18
COc1ccc(NC(=O)C2CCCCN2N)cc1OCC(C)C (stereo not given)
  -8, 99, 105, ·
CC(C)N(C(=O)CSc1cccc[n+]1[O-])c1ccccc1
  -14, 105, 110, -3
CCCn1nnnc1COC(=O)CSc1cc(C)c2ccccc2n1
  14, 103, 107, 6
CC(C)Oc1ccc(CNC(=O)Oc2ccccc2)cc1
  -10, 101, 103, -4
CCc1ccc(NC(=O)CCc2ccc(C)o2)cc1
  -11, 110, 104, ·
Cc1cc(N2CCCC2)n2c(nc3ccccc32)c1C#N
  -6, 104, 105, -1
CCOC(=O)CS(=O)(=O)c1nc2c(c(C(F)(F)F)n1)CCc1ccccc1-2
  -19, 100, 102, 88

# Going on with the list:
# Values in the order – Mtb MenB inh, Polio RdRp inh, Polio RdRp inh intensity, Mtb MbtI inh
O=C(COC(=O)/C=C/c1ccccc1Cl)Nc1cccnc1Cl
  ·, 102, 105, -7
CC1(C)C2CCC1(C)C(NC(=O)C1COc3ccccc3O1)C2 (stereo not given)
  -25, 102, 95, -42
CC(C)Cn1nccc1N
  -16, 108, 98, -12
O=C(c1cccs1)N(Cc1ccc(Br)cc1)c1ccc(F)cc1
  6, 108, 112, -15
O=C(CSc1nnnn1Cc1ccccc1)n1c2c(c3c1CCCC3)CCCC2
  -4, 101, 102, -4
Cc1ccn(CCC(=O)NCCc2ccccc2)n1
  -7, 103, 99, -11
COc1nc(NCCc2ccc(OC)c(OC)c2)nc(N2CCC(Cc3ccccc3)CC2)n1
  -14, 100, 99, 5
N#Cc1ccc(C23CC4CC(CC(C4)C2)C3)nc1SCc1ccccn1
  -57, 102, 103, 9
COc1ccc(C2C(C(=O)OCC(=O)N3CCCCC3)CCC(=O)N2c2ccc(OC)cc2)cc1 (stereo not given)
  3, 101, 105, -1
O=C(O)CCC(=O)Nc1cc(Cl)ccc1Cl
  -5, 109, 104, ·
CCCN1N=C(C(C)(C)C)Cn2c1nc1c2c(=O)n(CCC)c(=O)n1C
  -23, 106, 109, 2
CC(C)COc1ccc(OCC(C)C)c(N)c1
  -20, 105, 111, ·
COc1ccc2c(c1)sc(=NC(=O)COCC(=O)N=c1sc3cc(OC)ccc3n1C)n2C
  5, 102, 102, 4
CCC1CCCCN1C(=O)c1cc2ccccc2oc1=O (stereo not given)
  -8, 59*, 68*, ·
CC1CCc2sc(-c3nnc(SCC4CCOCO4)o3)cc2C1 (stereo not given)
  3, 100, 105, 22
O=C(CCc1n[nH]c(=O)[nH]c1=O)NCc1ccccc1
  -29, 102, 102, -4
CCOc1cccc(C(O)CNC)c1 (stereo not given)
  -5, 103, 105, -5
COc1ccc(-c2cc(N)n(S(=O)(=O)Cc3ccccc3)n2)cc1
  1, 102, 105, 1
CSCc1ccc2oc(C(=O)O)cc2c1
  -4, 102, 101, 9
COC(=O)c1ccc(C(=O)OC)c(NC(=O)Cn2nc(C(F)(F)F)cc2C)c1
  2, 102, 100, 8
N#CCCN(C1CCCCC1)S(=O)(=O)c1ccc(Cl)cc1
  -12, 102, 100, 8
Cn1c(C(=O)O)ccc1S(=O)(=O)N(Cc1ccccn1)Cc1ccccn1
  -15, 100, 97, -6
O=C(COc1ccccc1)NS(=O)(=O)c1ccccc1
  ·, 104, 105, -5
O=C(NCC(=O)N1CCc2ccccc21)c1ccccc1Cl
  -5, 101, 93, 42
N=C1C(c2nc3ccccc3s2)=C(O)CN1/N=C/c1ccc(O)c(O)c1O
  -43, 47, 246, -12
Cc1onc(-c2ccccc2Cl)c1C(=O)N1CCCC1
  0, 101, 103, -14
CNC(=O)c1cc(S(=O)(=O)Nc2ccc3c(c2)OCCO3)ccc1C
  5, 102, 103, -17
CS(=O)(=O)NC1CCN(Cc2ccccc2)CC1
  -3, 104, 107, ·
Cc1c(Cl)cccc1N=C1NN=C(c2c(N)n(C)c(=O)[nH]c2=O)CS1
  -31, 107, 107, 19
O=C(NC1CCCCNC1=O)c1csc2ccccc12 (stereo not given)
  -4, 108, 112, -8

# The listing continues:
# Values in the order – Mtb MenB inh, Polio RdRp inh, Polio RdRp inh intensity, Mtb MbtI inh
COc1c2c(cc3c1OCO3)CCN(C)C2
  -13, 102, 100, -15
Cc1noc(C)c1COc1ccc(CC(=O)N(C)Cc2ccc3c(c2)OCO3)cc1
  -5, 102, 107, -12
Cc1ccc(OC(=O)NC2(C(F)(F)F)OCCO2)cc1
  ·, 103, 108, -5
N=C1N=C2C=CC=CN2C(=O)/C1=C\c1ccccc1
  -42, 102, 98, 102
CCOC(=O)C1CCN(C(=O)c2ccc3c(c2)NC(=O)C(CS(=O)(=O)Cc2ccccc2Cl)N3)CC1 (stereo not given)
  9, 106, 105, 134
O=c1c2cc3c(cc2[nH]c(=S)n1CCN1CCOCC1)OCO3
  -3, 100, 103, -21
CCOC(=O)C1CCN(C(=O)Cn2cc(C(=O)c3ccco3)c3ccccc32)CC1
  -29, 100, 101, -18
O=c1c2cnn(CCO)c2ncn1Cc1ccc(F)cc1
  -12, 97, 97, 3
N#CCSc1ccccc1NC(=O)COC(=O)Cc1c[nH]c2ccccc12
  -22, 95, 229, -13
COC(=O)/C(C#N)=C/c1cccc(/C=C(\C#N)C(=O)OC)c1
  -35, 100, 106, 17
CC(C)NC(=O)c1cc(-c2ccc(O)cc2)on1
  -20, 102, 96, 9
O=C(O)CCCNc1nc2ccccc2s1
  -13, 107, 104, -3
Cc1ccc(Cl)cc1N1CCN(Cn2sc3ccccc3c2=O)CC1
  12, 101, 96, 89
CCOc1ccc(-c2cn3c(n2)sc2cc(C(=O)N4CCN(C)CC4)ccc23)cc1
  -4, 103, 106, -5
CS(=O)(=O)N(CC(=O)NCc1ccncc1)c1ccccc1
  7, 100, 101, -4
CCn1c(CNC(=O)c2cccc(C)c2)nnc1SCC(=O)N1CCc2ccccc21
  16, 102, 102, -2
NS(=O)(=O)c1ccc(CCNC(=O)C2Cc3ccccc3CN2C(=O)c2ccco2)cc1 (stereo not given)
  8, 103, 103, 18
O=C(CSc1nnnn1-c1ccccc1)N1CCCCC1
  1, 105, 107, -1
Cc1c(O)ccc2c(CN(C)Cc3ccc(Cl)cc3)cc(=O)oc12
  -9, 102, 104, 12
CNS(=O)(=O)c1ccc(C)cc1
  ·, 101, 98, -11
O=C(OCC(=O)N(c1ccccc1)C1CCCCC1)c1ccc(CO)cc1
  4, 105, 108, -1
CCN(S(=O)(=O)c1ccc(F)cc1)S(=O)(=O)c1c(C)c(C)c(C)c(C)c1C
  10, 110, 110, -9
COc1ccccc1N1CC(C(=O)N2CCN(S(=O)(=O)c3cccs3)CC2)CC1=O (stereo not given)
  -11, 99, 109, -14
Cc1cccc(C(=O)OCC(=O)N2CCCC(C)C2)c1 (stereo not given)
  -21, 103, 107, 198
COc1ccccc1N1CCN(C(=O)/C=C/c2c(C)nn(-c3ccccc3)c2C)CC1
  -2, 100, 108, 4
COC(=O)c1cc(NC(=O)CNc2cc(NC(C)=O)ccc2OC)cc(C(=O)OC)c1
  -34, 101, 92, 7
Cc1nc2cc(C(=O)Nc3ccccc3O)ccc2n1-c1ccccc1
  -16, 98, 105, -1
COCCNC(=O)Cc1ccc(F)cc1
  -20, 101, 103, -7
CCn1cnc2c(cnn2-c2ccccc2)c1=O
  14, 102, 102, 11
CCOC(=O)c1nnn2c1nc(SCc1ccc(F)cc1)c1ccccc12
  1, 106, 102, 7

# Further structures.
# Values in the order – Mtb MenB inh, Polio RdRp inh, Polio RdRp inh intensity, Mtb MbtI inh
Cc1noc(C)c1COC(=O)c1ccccc1NC(=O)Cc1ccccc1
  -31, 102, 108, 18
Cc1sc(NC(=O)/C=C/c2cccs2)c(C#N)c1C
  -5, 102, 103, 14
Cc1nc(C)c(C(=O)NCc2ccc3c(c2)OCO3)s1
  12, 102, 103, -21
COC(=O)c1cccc(NC(=O)C=C(C)C)c1
  -9, 101, 103, -10
CCOC(=O)c1cc(=O)c2ccc(OCC(=O)Nc3ccccc3)cc2o1
  16, 108, 114, -8
COc1ccc(C2(CNC(=O)C(c3ccccc3)c3ccccc3)CCOCC2)cc1
  -12, 100, 97, -5
COC(=O)C1=C(C)N(C)C(=O)/C1=C\c1ccccc1
  -36, 100, 103, 4
Cc1occc1C(=O)Nc1ccccc1Cc1ccccc1
  -10, 99, 101, -17
CCN(CC)CCOC(=O)C(Cc1cccc2ccccc12)CC1CCCO1 (stereo not given)
  21&4, 100&100, 101&103, -13&-7
O=C(CSc1ccccc1)NCc1nc(-c2ccccc2)no1
  -21, 102, 102, -6
CC(OC(=O)c1ccccn1)C(=O)Nc1ccc(C(N)=O)cc1 (stereo not given)
  14, 101, 100, 6
CC(C)(C)c1cc(C(c2ccc(O)cc2)N2CCOCC2)cc(C(C)(C)C)c1O (stereo not given)
  -15, 101, 104, 0
COC(=O)c1cccc(Cn2c(C)nc3ccccc3c2=O)c1
  -28, 105, 101, -7

# Filtered by structure, those above containing an aryl methoxy group
# Values in the order – Mtb MenB inh, Polio RdRp inh, Polio RdRp inh intensity, Mtb MbtI inh
COc1ccc(S(=O)(=O)N2CCN(CC(=O)Nc3ccc(OC)cc3OC)CC2)cc1
  -8, 102, 103, -11
C=CCc1c(C)c(C#N)c2nc3ccccc3n2c1NCCc1ccc(OC)c(OC)c1
  -53, 105, 98, 6
COc1cc2nc(N=C(N)N)[nH]c(=O)c2cc1OC
  -17, 99, 112, ·
COc1ccc(C2=CC(=O)OC3(CCCCC3)O2)cc1
  -25, 104, 107, 18
COc1ccc(CNC(=O)C(NS(=O)(=O)c2cccc3nsnc23)C(C)C)cc1 (stereo not given)
  6, 100, 101, 1
C=CCC1c2cccc(C(=O)O)c2C(=O)N1c1cccc(OC)c1 (stereo not given)
  -4, 103, 107, -114
COc1ccc(N(Cc2cc3ccc(C)cc3[nH]c2=O)C(=O)C(C)C)cc1
  -48, 104, 100, 8
COc1ccc(NC(=O)C2CCCCN2N)cc1OCC(C)C (stereo not given)
  -8, 99, 105, ·
COc1nc(NCCc2ccc(OC)c(OC)c2)nc(N2CCC(Cc3ccccc3)CC2)n1
  -14, 100, 99, 5
COc1ccc(C2C(C(=O)OCC(=O)N3CCCCC3)CCC(=O)N2c2ccc(OC)cc2)cc1 (stereo not given)
  3, 101, 105, -1
COc1ccc2c(c1)sc(=NC(=O)COCC(=O)N=c1sc3cc(OC)ccc3n1C)n2C
  5, 102, 102, 4
COc1ccc(-c2cc(N)n(S(=O)(=O)Cc3ccccc3)n2)cc1
  1, 102, 105, 1
COc1c2c(cc3c1OCO3)CCN(C)C2
  -13, 102, 100, -15
COc1ccccc1N1CC(C(=O)N2CCN(S(=O)(=O)c3cccs3)CC2)CC1=O (stereo not given)
  -11, 99, 109, -14
COc1ccccc1N1CCN(C(=O)/C=C/c2c(C)nn(-c3ccccc3)c2C)CC1
  -2, 100, 108, 4
COC(=O)c1cc(NC(=O)CNc2cc(NC(C)=O)ccc2OC)cc(C(=O)OC)c1
  -34, 101, 92, 7
COc1ccc(C2(CNC(=O)C(c3ccccc3)c3ccccc3)CCOCC2)cc1
  -12, 100, 97, -5

# Assay outcomes from PubChem.

# Rows were taken by chance; about 1.9% have a hit in one of these screens.
